TRPV1 potentiator: human TRPV1 potentiation; potentiation, % at 8.33 µM; Q8NER1; TRPV1-expressing cells, Fluo-8 calcium influx, capsaicin EC20 potentiation; host cell line not named in the record; control for the full effect not named in the record; 320,000 compounds, 0.02% hits; active means potentiation above 80%; inconclusive means 30% to 80%; inactive means below 30%; note: 0% is about no effect
Target sequence (Q8NER1 whole entry, looked up): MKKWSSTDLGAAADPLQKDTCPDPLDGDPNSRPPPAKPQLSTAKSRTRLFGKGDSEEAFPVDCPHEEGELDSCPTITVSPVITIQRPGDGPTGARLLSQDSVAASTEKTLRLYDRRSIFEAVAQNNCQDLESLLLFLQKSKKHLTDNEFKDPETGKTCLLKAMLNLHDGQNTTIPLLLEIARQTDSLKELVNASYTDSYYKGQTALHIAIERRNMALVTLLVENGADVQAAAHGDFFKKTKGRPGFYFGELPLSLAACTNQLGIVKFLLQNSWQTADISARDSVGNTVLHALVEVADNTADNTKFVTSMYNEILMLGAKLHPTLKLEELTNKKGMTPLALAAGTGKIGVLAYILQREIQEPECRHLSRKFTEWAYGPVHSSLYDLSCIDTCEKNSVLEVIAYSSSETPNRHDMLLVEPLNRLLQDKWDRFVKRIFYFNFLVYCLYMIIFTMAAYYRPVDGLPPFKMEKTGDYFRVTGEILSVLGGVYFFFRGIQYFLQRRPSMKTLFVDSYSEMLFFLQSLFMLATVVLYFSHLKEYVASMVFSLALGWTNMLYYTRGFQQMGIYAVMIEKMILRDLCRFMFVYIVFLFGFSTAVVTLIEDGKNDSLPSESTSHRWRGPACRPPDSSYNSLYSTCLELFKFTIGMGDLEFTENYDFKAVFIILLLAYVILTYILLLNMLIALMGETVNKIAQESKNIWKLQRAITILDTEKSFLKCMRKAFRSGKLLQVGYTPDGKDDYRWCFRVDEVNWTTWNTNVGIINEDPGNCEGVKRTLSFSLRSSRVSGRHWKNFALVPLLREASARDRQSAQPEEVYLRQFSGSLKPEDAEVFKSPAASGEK
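TRPV1-expressing cells were cultured overnight at 35.5C and loaded with Fluo-8 calcium dye for 40 to 90 min at room temperature. After a 10 s baseline, compound was added and calcium influx was read kinetically for 3 min (ex 480/em 520 nm).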
Sfp PPTase inh: blocks B. subtilis Sfp PPTase activity | Q9F4F7 | Biochemical Sfp PPTase activity, qHTS | Potency, µM, without a hit: max response, negative = inhibition, actives largely listed as inhibitors | 310,000 compounds, 3.5% hits; active = well fitted inhibition curve with a large enough effect; inconclusive = small, poorly fitted or top-dose-only effect, or another doubt; inactive = no such curve, though single readings can be large or run the other way;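 note: the enzyme is Sfp with the accession as filed and its product quenches rhodamine fluorescence; potency is the fitted concentration of half-maximal effect; 0% = enzyme reaction without inhibitor and -100% = no enzyme wells; top concentration of the series not given in the record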
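Reaction rates are the 30-min fluorescence difference (ex 525, em 598 nm) in wells containing 15 nM Sfp, 5 uM rhodamine-CoA and 12.5 uM BHQ-2-YbbR at pH 7.6 with 10 mM MgCl2.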
ClpP mod: qHTS Assay for Activators of ClpP; ATP-dependent Clp protease proteolytic subunit (Bacillus subtilis (strain 168)), P80244; purified B. subtilis ClpP, FRET peptide cleavage, 20 min; Potency, µM (doses to about 57.5 µM), without a hit: at the top dose activity change, negative = active; 340,000 compounds, 1.9% hits; active = well fitted falling curve with a large enough effect; inconclusive = small, poorly fitted or top-dose-only effect; inactive = no such curve, though single readings can be large or run the other way; note: potency is the fitted concentration of half-maximal effect; the source files actives as falling curves though it sought activators and does not explain the sign; nearly all actives have a fitted effect of over 65% in size; many hits overshoot -100%
Target sequence (P80244 whole entry, looked up): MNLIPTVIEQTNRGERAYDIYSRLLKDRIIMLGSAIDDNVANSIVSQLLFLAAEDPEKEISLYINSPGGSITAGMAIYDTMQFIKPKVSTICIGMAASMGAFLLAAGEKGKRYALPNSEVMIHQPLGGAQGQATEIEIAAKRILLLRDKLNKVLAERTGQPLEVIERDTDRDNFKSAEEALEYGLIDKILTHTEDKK
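Purified B. subtilis ClpP, 10 microg/mL final in Tris/HCl pH8 with KCl, BSA, glycerol and Tween-20, cleaved an Abz/nitrotyrosine-quenched decapeptide. Fluorescence (ex 320, em 430) was read at 0 and 20 min at room temperature. Delta was normalized to 5.8 microM ADEP and DMSO/no-enzyme controls.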
gsp agonist: activates gsp, the McCune-Albright syndrome mutation; gsp mutant cells, cAMP HTRF, 30 min; control for the full effect not named in the record; Potency, µM (titrated, usually from 76.9 µM), for the others: top-dose activation (cAMP increase), most hits filed as activators; 340,000 compounds, 0.13% hits; active = well fitted activation curve with a large enough effect; inconclusive = small, poorly fitted or top-dose-only effect, or another doubt; inactive = no such curve, though single readings can be large or run the other way; cell line not stated here;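 note: phosphodiesterase inhibitor Ro 20-1724 added with compounds to block cAMP breakdown; potency is the fitted concentration of half-maximal effect; nearly all actives have a fitted effect of over 60% in size; about a fifth of the inactives were tested at one dose only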
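Cells in DMEM/10% FBS with G418 were pretreated with compounds in DMSO plus […] (300 uM stock) for 30 min at 37C. cAMP was measured by HTRF (cAMP-d2 plus anti-cAMP antibody-K) after 30 min at room temperature.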
TRPML1 inh: human mucolipin-1 channel inhibition; Q9GZU1; TRPML1-inducible cells, Ca2+ dye fluorescence, FDSS; stronger effect = lower value; inhibition of EC80 agonist-evoked calcium signal; activity change, negative = inhibition, % (no concentration beside the values); 390,000 compounds, 0.02% hits; AID 624415; in the data active means activity change below about -50%; inconclusive means about -30% to -50%; inactive means above about -30%;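 note: stimulus is agonist 54-4 at its EC80 concentration; % is set by controls: 0 for no effect and ±100 for the full control effect; compound concentration not given in the record; the text of the record puts the active cut at -80%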
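Tet-induced TRPML1-DL cells loaded with Ca8 no-wash calcium dye were read kinetically on FDSS. Compound addition was followed by EC80 agonist 54-4 (4 uM final); inhibition was read over 110 s.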
Menin-MLL FL inh: menin-MLL binding inhibition, fluorescein peptide. Fluorescence polarization, fluorescein-MLL peptide displacement from menin. FP activity change, % at 61.4 µM. 290,000 tested, under 10 active; inconclusive = falling polarisation curve, or a change in total fluorescence; inactive = total fluorescence flat and polarisation flat or rising; no compound was filed as active; the % refers to the polarisation; negative = inhibition;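 note: % of control where 0% means no effect; inhibitors lower the polarisation; unlabelled MLL peptide was the positive control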
gsp antag: gsp mutant antagonism | 340,000 compounds, 0.4% hits | gsp-mutant cells, cAMP HTRF, 30 min; control for the full effect not named in the record | Potency, µM (series often up to 76.9 µM), inactives show at the top dose activity change, negative = inhibition, most hits filed as inhibitors | AID 624288; active = falling curve of any shape with a large fitted effect; inconclusive = falling curve, mostly with a smaller effect; inactive = flat or rising curve; cell line not stated here;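 note: intracellular cAMP measured with PDE inhibitor Ro 20-1724 present during compound exposure; potency is the fitted concentration of half-maximal effect; % is set by controls: 0 for no effect and ±100 for the full control effect; nearly all actives have a fitted effect of over 65% in size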
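Measurement of cellular cAMP by homogeneous time-resolved fluorescence following a 30 min compound exposure at 37C. The PDE inhibitor […] was present throughout; the assay buffer was DPBS with 0.05% BSA and 0.005% Tween 20.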
Numbers without * were called inactive; ? = inconclusive; / = no result given; [ ] = remark or other dose. An unsorted share of the library; about 4.9% have a hit in one of these screens.

cpd | SMILES | TRPV1 potentiator | Sfp PPTase inh | ClpP mod | gsp agonist
1 | Cc1ccc(C(=O)C(C)Oc2ccc3ccc(=O)oc3c2)cc1 (stereo not drawn) | -4 | 4% | -5.6% | 17%
2 | CC(=O)Nc1ccc(C(=O)N2CCCc3ccccc32)cc1 | 6 | 11% | -1.3% | -12%[15.4 µM]
3 | Cc1ccc(S(=O)(=O)c2nnn3c2nc(N2CCCCC2)c2ccccc23)cc1 | 0 | -3% | -18% | -6%
4 | CCOC(=O)CNc1c(-c2ccc(F)cc2)nc2cnccn12 | 4 | 9% | 25µM* | ?
5 | Cc1ccc(CNC(=O)c2ccc(N3CCC4(CC3)CC(c3cccc(Br)c3)=NO4)c(NC(=O)c3c(Cl)cccc3Cl)c2)cc1 | 7 | / | -1.1% | /
6 | CN(C(=O)COC(=O)c1ccccc1SCC(=O)N1CCCC1)C1(C#N)CCCCC1 | -10 | / | -2.4% | ?
7 | CCOC(=O)c1c(N)sc2c(O)c(Br)ccc12 | 7 | ? | 7.4% | 4%
8 | Cc1ccc(Nc2nnc(SCC(=O)NC3CC3)s2)cc1 | -14 | / | -3.3% | -18%
9 | O=C1c2cccc3c([N+](=O)[O-])ccc(c23)C(=O)N1c1nccs1 | 2 | 15% | -0.7% | ?
10 | O=C(COc1ccccc1)Nc1cc(Cl)ccc1Cl | ? | 17% | -2.7% | -6%
11 | Cc1ccc(NC(=O)Nc2nc3ccc(S(C)(=O)=O)cc3s2)cc1 | -2 | / | -21% | 2%
12 | COC(=O)c1sccc1NC(=O)Nc1cccc([N+](=O)[O-])c1 | -14 | 4% | 0.5% | -3%
13 | Cc1ccc([N+](=O)[O-])cc1S(=O)(=O)N(C(=O)c1ccncc1)c1ccc2oc3c(c2c1)CCCC3 | ? | -9% | -5.3% | 17%
14 | O=C(CCC(=O)c1ccc(F)cc1)Nc1cccc(S(=O)(=O)Nc2cccc(Cl)c2)c1 | 6 | 35% | -0.6% | -12%
15 | Cc1cccc(-n2ncc3c(NCCc4ccc(S(N)(=O)=O)cc4)ncnc32)c1 | -7 | 2% | 5.2% | ?

cpd | TRPML1 inh | Menin-MLL FL inh | gsp antag
1 | -2 | / | -18%
2 | -6 | 2.2 | -2%
3 | -8 | -3.2 | 5%
4 | -16 | -21 | 9%
5 | -2 | / | 5%
6 | -12 | / | 2%
7 | 2 | 1.3 | -8%
8 | 9 | / | -5%
9 | 1 | -3.5 | 10%
10 | / | -0.3 | -7%
11 | -4 | / | 16%
12 | 21 | -4.6 | -7%
13 | -24 | 1.3 | -4%
14 | 12 | 1.2 | -18%
15 | 16 | -0.3 | ?

Continued, overlapping the part above by 5 compounds.
cpd | SMILES | TRPV1 potentiator | Sfp PPTase inh | ClpP mod | gsp agonist
11 | Cc1ccc(NC(=O)Nc2nc3ccc(S(C)(=O)=O)cc3s2)cc1 | -2 | / | -21% | 2%
12 | COC(=O)c1sccc1NC(=O)Nc1cccc([N+](=O)[O-])c1 | -14 | 4% | 0.5% | -3%
13 | Cc1ccc([N+](=O)[O-])cc1S(=O)(=O)N(C(=O)c1ccncc1)c1ccc2oc3c(c2c1)CCCC3 | ? | -9% | -5.3% | 17%
14 | O=C(CCC(=O)c1ccc(F)cc1)Nc1cccc(S(=O)(=O)Nc2cccc(Cl)c2)c1 | 6 | 35% | -0.6% | -12%
15 | Cc1cccc(-n2ncc3c(NCCc4ccc(S(N)(=O)=O)cc4)ncnc32)c1 | -7 | 2% | 5.2% | ?
16 | COc1cc(C(=O)NCc2nnc(SCC(=O)Nc3nc4ccc(C)cc4s3)o2)cc(OC)c1OC | 3 | ? | -2.4% | 30%
17 | O=C(Oc1cccc(Cl)c1)N1CCOCC1 | 1 | 4% | -0.7% | 10%[15.4 µM]
18 | Cc1csc(=O)n1CCC(=O)OCC(=O)Nc1ccc(Cl)cn1 | 8 | / | 0.3% | ?
19 | CCN1CCc2nc3ccccc3c(C(=O)Nc3ccc(C#N)cc3)c2C1 | 3 | -1% | -11% | -86%[inhibitor]
20 | CCCOc1ccc(Br)cc1CSC(=N)N | -13 | -2% | -0.6% | 18%
21 | CCOC(=O)Cc1csc(NC(=S)NC(=O)c2cc(OC)c(OC)c(OC)c2)n1 | 2 | ? | -0.9% | 10%
22 | CC(=O)Oc1ccc(/C=C2\N=C(C3CCCCC3)OC2=O)cc1 | -2 | 0% | 0.1% | 2%[15.4 µM]
23 | C/C=C/c1ccc(OCC(O)CN2CCCCCCC2)c(OC)c1 (stereo not drawn) | 4 | -3% | / | -16%[15.4 µM]
24 | COc1cccc2sc(Nc3nc4ccc(NC(C)=O)cc4s3)nc12 | -8 | ? | 1.1µM* | -27%
25 | Cc1[nH]c(-c2ccc(F)cc2)cc1C(=O)N1CCN(c2ccccc2)CC1 | 6 | 5% | -13% | -40%
26 | O=C(CN1CCN(C(=O)c2ccccc2F)CC1)Nc1ccc(Br)cc1 | -1 | 10% | 0.3% | -39%[inhibitor]
27 | CCOc1ccccc1N(CC(=O)Nc1c(C)n(C)n(-c2ccccc2)c1=O)S(=O)(=O)c1ccccc1 | 2 | -5% | 3.2% | -3%
28 | CCNC(=O)CC1C(=O)N(c2ccc(OC)cc2)C(=O)N1Cc1ccc(OC)cc1 (stereo not drawn) | 10 | 4% | -1.4% | -73%[inhibitor]
29 | Cc1ccc(N2CC(C(=O)N3CCN(c4ccccn4)CC3)CC2=O)cc1 (stereo not drawn) | / | / | / | -8%[15.4 µM]
30 | O=C1CCC(C(=O)N2CCSCC2)CN1CCc1ccccc1 (stereo not drawn) | 15 | 10% | -2.0% | 19%

cpd | TRPML1 inh | Menin-MLL FL inh | gsp antag
11 | -4 | / | 16%
12 | 21 | -4.6 | -7%
13 | -24 | 1.3 | -4%
14 | 12 | 1.2 | -18%
15 | 16 | -0.3 | ?
16 | -5 | 0.4 | 8%
17 | 12 | 2.9 | -7%
18 | -3 | / | 4%
19 | 40 | -0.3 | 1%
20 | 18 | -1.2 | 6%
21 | 0 | -1.3 | -9%
22 | 39 | 0.1 | -10%
23 | -2 | -0.3 | 10%
24 | 7 | 14 | -10%
25 | / | 3.1 | -15%
26 | 2 | 1.3 | -6%
27 | -8 | -2.1 | -24%
28 | 6 | -5.0 | 10%
29 | 9 | / | 7%
30 | -28 | / | 11%

Next compounds follow.
cpd | SMILES | TRPV1 potentiator | Sfp PPTase inh | ClpP mod | gsp agonist
31 | Cc1nnc(NC(=O)CSc2nnc(CCc3nc4ccccc4[nH]3)n2C)s1 | 4 | -12% | -1.0% | 0%
32 | CC(=O)Nc1cccc(NC(=O)Nc2ccc(F)cc2F)c1 | -18 | 0% | / | 6%[15.4 µM]
33 | C=CCC[C@H](Cc1ccc(F)cc1)C(=O)OC[C@@H](Cc1c[nH]c2ccccc12)NC(=O)[C@H](CC=C)CC(=O)NCCO | / | / | 0.0% | /
34 | CC1(C)C2CCC1(C)C(Nc1ccccc1)C2 (stereo not drawn) | 10 | -9% | 1.7% | 4%
35 | CC1C(=O)N2CCCc3cc(NC(=O)C4CC4)cc1c32 (stereo not drawn) | 6 | / | -0.8% | -4%[15.4 µM]
36 | O=C(c1ccco1)c1coc2c1cc(O)c1ccccc12 | 5 | -8% | -0.3% | 26%
37 | CCOc1ccc(C(C)=O)cc1COC(=O)c1cc([N+](=O)[O-])ccc1N1CCOCC1 | -3 | / | 1.3% | -3%[15.4 µM]
38 | CCn1c(=NC(=O)CS(=O)(=O)c2ccc(C)cc2)sc2cccc(OC)c21 | 14 | / | ? | 5%
39 | COc1cccc(/C=N/NC(=O)CNC(=O)c2ccc(S(=O)(=O)N3CCCC3)cc2)c1OC | ? | 14% | 4.3% | 4%
40 | O=C(CSc1nc(O)c(C2CCCCC2)c(=O)[nH]1)NCC1CCCO1 (stereo not drawn) | ? | -23% | -2.9% | ?
41 | CCOc1ccc(C(=O)NCC2CCCO2)cc1 (stereo not drawn) | -6 | 13% | -1.4% | 5%
42 | Cc1cccc(N(CC(=O)NCc2ccc(F)cc2)C(=O)c2csnn2)c1C | 8 | -1% | 0.2% | -24%
43 | CCOC(=O)c1ccc(NC(=O)Nc2ncc(Cl)cc2Cl)cc1 | ? | -15% | / | /
44 | Cn1cnnc1-c1cccc(NS(=O)(=O)c2ccc(N3CCCC3=O)cc2)c1 | 3 | 7% | 0.7% | -14%
45 | COc1ccc(CN2CCSCC2)c(OC)c1C | -12 | -5% | -0.3% | 9%[15.4 µM]

cpd | TRPML1 inh | Menin-MLL FL inh | gsp antag
31 | -14 | -1.8 | 15%
32 | -25 | 1.7 | 7%
33 | 0 | / | -12%
34 | / | 3.8 | 6%
35 | 40 | / | -7%
36 | 8 | -5.4 | 5%
37 | -4 | / | -17%
38 | 7 | / | 35µM*
39 | 15 | 1.0 | -11%
40 | -1 | -0.3 | -2%
41 | 12 | 2.8 | -2%
42 | -9 | 0.9 | -2%
43 | / | 0.0 | /
44 | 10 | 1.2 | 6%
45 | -9 | -2.2 | 0%

More entries.
cpd | SMILES | TRPV1 potentiator | Sfp PPTase inh | ClpP mod | gsp agonist
46 | CCc1ccc(/C=N/NC(=O)c2cc(-c3ccccc3OC)nc3ccccc23)s1 | 8 | 18% | -12% | 9%
47 | Cc1cc(/C(N)=N/OC(=O)Nc2cccc(C(F)(F)F)c2)no1 | -3 | 18% | / | 6%[15.4 µM]
48 | CCOC(=O)N1CCN(C(=O)CNC(=O)Cc2ccc(Cl)cc2)CC1 | 0 | 18% | 1.1% | ?
49 | Cc1cccc(C(=O)OCC(=O)NC(=O)NCc2ccccc2)c1 | 3 | / | -0.2% | -6%
50 | COc1ccc(C(C#N)Nc2ccccc2C)cc1 (stereo not drawn) | -3 | -2% | -3.2% | 0%

cpd | TRPML1 inh | Menin-MLL FL inh | gsp antag
46 | -13 | 5.8 | -4%
47 | -7 | -1.3 | 4%
48 | 0 | -0.3 | 2%
49 | 5 | / | 9%
50 | -2 | -2.1 | 6%

Source: PubChem
